RN4220 kill – growth inhibition of S. aureus RN4220, primary screen, OD600; 16 h; inhibition, % (concentration not given with the values); 0.33% of 330,000 active;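 active means z-score of -3 or lower and OD600 up to 0.18 on both plates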;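 further: plate controls were untreated cells for no effect and reference antibiotic for full effect; stock transfer was 100 nL into about 80 µL; one replicate is shown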
Sa ugtP lethal – growth inhibition of ugtP-null S. aureus, primary screen, RN4220 ugtP deletion, OD600. 16 h; some inactives read as strong as hits. growth inhibition, % (test concentration not listed). 0.54% of 330,000 active. AID 1259309, 2017;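 active means z-score under -3 and OD600 up to 0.15 on both plates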;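 further: plate controls were untreated wells for no effect and antibiotic for full effect; wells of about 80 µL received 100 nL stock; the first replicate is given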
BJeLR lethal – MLPCN primary cell-based screen for lethality selective to Ras in HRASV12 cells | BJeLR (HRASV12) viability, CellTiter-Glo ATP luminescence, 48 h; reference of the scale not given here | inhibition, % (concentration not given with the values) | 0.17% of 300,000 active | AID 1554, 2009;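 active means replicate mean above 50%; inconclusive means above 50% but judged a plate artefact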;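 further: 50 nL library stock added to about 25 µL; numbers are from one replicate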
PrP 5UTR inh – inhibition of PrP 5' UTR reporter expression; AID 488862, 2010; cell-based PrP 5' UTR mRNA reporter, plate reader; 0.35% of 340,000 active; inhibition, % (concentration not given with the values);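 active means every replicate at 50% or more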;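 further: 0 = median of the neutral control wells; tested in H4 reporter cells; numbers are from one replicate; inactives centre near -14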
Autofluor counter – flagged as autofluorescent in microsphere protease counterscreen; 3.1% of 360,000 active; fluorescence intensity (test concentration not listed); AID 624483; compound autofluorescence counterscreen, microsphere flow cytometry; stronger effect = higher value;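 active means at least 3 SD above the mean of all compounds, about 16000 in these data; inconclusive means too few beads counted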;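 further: 100 nL of 1 mM stock went into each well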
Mtb hypoxia inh – PubChem AID 1159583 | M. tuberculosis hypoxia-regulated fluorescent reporter, fluorescence | fluorescence inhibition, % (concentration not given with the values) | 0.1% of 300,000 active;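 active means 35 to 45% if threefold the growth effect, above 45% if 1.5-fold the growth effect; inactive means the rest, general growth blockers included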;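 further: wells of about 50 µL received 100 nL stock; 0% = vehicle wells and 100% = reference inhibitor wells; whole bacteria with a GFP reporter of the hypoxia response; strong numbers were not always called active; many hits fall short of the cut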
Mtb hypoxia inh growth – further read-out of Mtb hypoxia inh, marked with its call; growth inhibition, %; measured here: M. tuberculosis growth (absorbance);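 0% = vehicle and 100% = reference antibiotic; read after six days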
An asterisk follows results filed as active; ? = inconclusive; · = not tested or not shown.

SMILES	RN4220 kill	Sa ugtP lethal	BJeLR lethal	PrP 5UTR inh	Autofluor counter	Mtb hypoxia inh	Mtb hypoxia inh growth
O=C(NN=Cc1ccc2c(c1)OCO2)c1cc(-c2ccccc2)nc2ccccc12	1.4	5	·	·	·	-9	4
O=c1[nH]c2ccc(S(=O)(=O)Nc3ccc(Cl)cc3)cc2[nH]1	2.6	11	7	-72	3584	-4	-2
Cc1ccsc1-c1nc(-c2ccccc2)c(-c2ccccc2)[nH]1	5.8	-3	3	-10	9658	10	22
CCN(CC)S(=O)(=O)c1ccc2c(c1)nc(CCC(=O)OCC(=O)N1CCc3ccccc31)n2C	3.2	-3	-1	-9	3018	3	5
COc1cccc(/C=C/C(=O)OCC(=O)NCC2CCCO2)c1 (configuration not stated)	·	·	-3	-19	9061	·	·
CCCCCn1c(CNC(=O)COC)nc2ccccc21	-2.6	-3	-6	-6	3357	-3	-3
C#CCOCCOCCOCCNc1nc(N2CCOCC2)nc(N2CCN(C(=O)CCCCCCCCCCNC(=O)C(CCSC)n3cc(CCO)nn3)CC2)n1 (configuration not stated)	1.8	-19	·	·	·	11	15
CC1CC1C(=O)OCC(=O)NCc1ccccc1Cl (configuration not stated)	-2.3	-6	-1	-15	4622	·	·
COc1ccc(C(CC2OC(=O)c3ccccc32)=NNC(N)=O)cc1 (configuration not stated)	5.4	-7	·	·	·	3	5
COc1ccc([N+](=O)[O-])cc1N=Cc1c(O)n(CCc2ccccc2)c(=O)n(C(C)C)c1=O	28	-12	0	7	2674	-7	2
O=C(Cc1ccccc1)N/N=C/c1ccc2cccc(O)c2n1	·	·	-9	-35	4363	·	·
O=C1c2ccccc2C(=O)N1CCC(c1ccc(F)cc1)c1ccco1 (configuration not stated)	·	·	-6	-16	3244	·	·
CC1CCN(C(=O)C2CCN(c3ncnc4c3nc3n4CCCCC3)CC2)CC1	1.3	7	-7	-8	5264	28*	50*
COCCCN(C(=O)Cc1ccc(Cl)c(Cl)c1)c1c(N)n(Cc2ccccc2)c(=O)[nH]c1=O	7.1	6	3	-16	5211	9	9
COc1ccccc1N(C)S(=O)(=O)c1ccc(C(=O)Nc2cccc(S(=O)(=O)N3CCOCC3)c2)cc1	10	4	·	-15	3719	12	8
COc1ccc(N2C(=O)NC(=O)C(CCc3ccncc3)(CCc3ccncc3)C2=O)cc1	2.1	-4	0	-14	7962	-9	-7
CCOc1ccc(Oc2c(/C=N/NC(=O)COc3ccccc3OC)c(C)nn2-c2ccccc2)cc1	·	·	12	-18	2582	·	·
O=C(COc1ccc(Br)cc1CO)Nc1ccc(S(=O)(=O)N2CCCC2)cc1	2.0	-2	·	-4	?	3	-8
COc1ccc(-c2nnc3ccc(SCc4ccccc4)nn23)cc1	·	·	16	-1	6045	·	·
N#Cc1ccc(OCC(=O)Nc2ccc(N3CCCC3)cc2)cc1	5.2	16	·	-27	3418	-6	0
O=C(CSc1nnc(COc2cccc3ccccc23)o1)N1CCN(C(=O)c2ccco2)CC1	3.1	8	-12	-9	5790	18	7
CC#CCCc1nc2ccccc2c(=O)n1N	3.4	13	3	-7	7961	16	10
CCN(Cc1ccccc1)C(c1ccc(Cl)cc1)c1nnnn1C(C)(C)C (configuration not stated)	-8.8	-18	10	-3	3171	-1	3
Cc1ccc(S(=O)(=O)Nc2cccc(-n3cnnn3)c2)cc1C(=O)O	1.4	-2	7	-4	5323	-5	5
Cc1nc(-c2ccc(Cl)cc2)sc1C(=O)NNC(=O)C(C)C	6.0	8	-7	·	·	3	3
CCCCn1c(N)c(N(CC(C)C)C(=O)c2ccc(Br)s2)c(=O)[nH]c1=O	-0.7	4	-4	-15	4871	12	11
COc1cc(CC(=O)OCC(=O)c2ccc(F)cc2)cc(OC)c1OC	4.9	4	·	-31	3496	18	12
O=C1NC2(CCCCCC2)C(=O)N1Cc1cccc(Cl)c1	3.3	15	2	-11	3841	1	-3
CCOC(=O)CSC1=C(C#N)C(c2ccc(C)cc2)C2=C(CCCC2=O)N1 (configuration not stated)	-11	0	-8	-22	2268	5	6
CC1(C)C2CC=C(C=NNC(=O)C(N)=O)C1C2 (configuration not stated)	3.3	6	·	·	·	6	16

A run of entries from further up, as a working copy:
SMILES	RN4220 kill	Sa ugtP lethal	BJeLR lethal	PrP 5UTR inh	Autofluor counter	Mtb hypoxia inh	Mtb hypoxia inh growth
CCOC(=O)CSC1=C(C#N)C(c2ccc(C)cc2)C2=C(CCCC2=O)N1 (configuration not stated)	-11	0	-8	-22	2268	5	6
CC1(C)C2CC=C(C=NNC(=O)C(N)=O)C1C2 (configuration not stated)	3.3	6	·	·	·	6	16

Next records.
SMILES	RN4220 kill	Sa ugtP lethal	BJeLR lethal	PrP 5UTR inh	Autofluor counter	Mtb hypoxia inh	Mtb hypoxia inh growth
COc1cccc(C(=O)NCC(=O)N/N=C/c2ccc(OC(=O)c3cccs3)c(OC)c2)c1	·	·	-7	-104	10259	·	·
CC(=NCC1CCCO1)c1c(O)n(-c2ccccc2)c(=O)[nH]c1=O (configuration not stated)	7.2	8	2	-14	·	4	6
CCOc1ccccc1C(=O)NC(C)CCc1ccccc1 (configuration not stated)	9.8	2	-5	·	4124	14	3
N#C/C(=C\c1ccc[nH]1)Sc1nc2ccccc2s1	-7.3	-7	1	-29	2458	·	·
COc1ccc(C2CC(c3ccccc3)=NN2c2ccc(N)cc2)cc1 (configuration not stated)	-12	5	-10	-6	2788	6	0
COc1cc(C(=O)NC(=S)Nc2ccc3[nH]c(=O)[nH]c3c2)cc(OC)c1OC	8.0	-22	4	-34	3521	11	3
c1coc(-c2nn3c(-c4ccco4)nnc3s2)c1	4.5	-10	0	-26	·	-3	8
NC(=O)NC(=O)COC(=O)[C@H](Cc1ccccc1)NC(=O)c1cccs1	-1.2	4	12	-30	4504	6	7
NC(=NO)c1nc(N2CCCC2)nc(N2CCCC2)n1	-1.9	-6	·	·	·	-5	8
Cc1ccc(C)c(-c2nc3ccc(N)cc3[nH]2)c1	6.3	0	-11	-21	4380	10	9
CC(/C=C(\NC(=O)c1ccccc1)C(=O)N=Nc1c(O)[nH]c2ccc(C)cc12)=C\c1ccccc1	5.5	-14	-4	-1	2336	·	·
O=C(NCCC(=O)N1CCN(c2ncccn2)CC1)c1ccccc1	6.7	-9	1	-24	8434	-1	9
Cc1ccc(-c2n[nH]c3c2C(c2ccccc2)N(c2ccc(C(=O)O)cc2)C3=O)cc1 (configuration not stated)	18	5	4	-18	4965	4	3
O=C(NCCc1nc(-c2ccc(F)cc2)no1)c1ccc(F)cc1	6.2	-4	·	-23	3142	11	3
O=C(CNC(=O)c1ccc(Br)cc1)N/N=C/c1cccnc1	·	·	-17	-1	6077	·	·
C=C1CCN([C@@H](Cc2ccccc2)C(=O)NC2CCN(Cc3ccccc3)CC2)S(=O)(=O)c2ccccc21	·	·	3	-8	4618	·	·
Cc1cc(C(=O)COC(=O)Cn2c(C(F)(F)F)nc3ccccc32)c(C)n1Cc1ccco1	1.0	4	-12	-17	3593	17	9
CN(Cc1ccccc1)C(=O)c1ccccc1-c1ccccc1	5.9	-12	-4	-3	3260	-2	2
Cc1ccc(OCC(O)CNC2CCCC2)cc1C (configuration not stated)	4.2	9	0	-12	4099	2	10
COc1ccc(Nc2nc3[nH]c(=O)cc(O)c3s2)cc1	30	72	2	-12	4435	7	10
CCOC(=O)c1[nH]c2ccc(F)cc2c1NC(=O)c1cc(OC)c(OC)c(OC)c1	-3.0	-16	-6	-7	2739	·	·
Cc1oc(/N=C/c2cccc3ccccc23)c(C#N)c1C	·	·	10	-37	10828	·	·
O=C(NCc1ccc2c(c1)OCO2)C(=O)NCC1OCCCN1S(=O)(=O)c1ccc(F)cc1 (configuration not stated)	1.6	4	4	-13	5536	-1	8
CNC(=O)OCN1C(=O)C2CC=CCC2C1=O (configuration not stated)	0.7	1	·	-21	4044	1	-3
CC(C)CN(CC(C)C)S(=O)(=O)N1CCC(C(=O)N2CCc3ccccc3C2)CC1	2.5	-1	-1	-16	10736	-3	10
Cc1cc2cc(CNC(=O)C(C)Oc3ccccc3)ccc2n1C (configuration not stated)	·	·	-6	-14	2556	·	·
CCNC(=O)NC(=O)C(C)Sc1ncc(C(F)(F)F)cc1Cl (configuration not stated)	3.2	-2	-6	-14	4575	4	4
Cc1ccc(C(=O)Cc2ccccc2)c(O)c1	2.9	6	·	-56	3693	19	6
Cc1ccc(NC(=O)CCNS(=O)(=O)c2ccc3[nH]c(=O)oc3c2)cc1C	1.0	4	-1	-18	3847	-5	3
O=C(NNC(=O)c1cc2ccccc2oc1=O)c1ccccc1[N+](=O)[O-]	1.6	1	1	-12	6139	-13	7

Four compounds from above, limited to Sa ugtP lethal and BJeLR lethal.
structure | Sa ugtP lethal | BJeLR lethal
COc1ccc(Nc2nc3[nH]c(=O)cc(O)c3s2)cc1 | 72 | 2
CCOC(=O)c1[nH]c2ccc(F)cc2c1NC(=O)c1cc(OC)c(OC)c(OC)c1 | -16 | -6
Cc1oc(/N=C/c2cccc3ccccc23)c(C#N)c1C | · | 10
O=C(NCc1ccc2c(c1)OCO2)C(=O)NCC1OCCCN1S(=O)(=O)c1ccc(F)cc1 (configuration not stated) | 4 | 4

Three compounds already listed, ordered by count of non-hydrogen atoms, rising:
SMILES	RN4220 kill	Sa ugtP lethal	BJeLR lethal	PrP 5UTR inh	Autofluor counter	Mtb hypoxia inh	Mtb hypoxia inh growth
CCNC(=O)NC(=O)C(C)Sc1ncc(C(F)(F)F)cc1Cl (configuration not stated)	3.2	-2	-6	-14	4575	4	4
Cc1cc2cc(CNC(=O)C(C)Oc3ccccc3)ccc2n1C (configuration not stated)	·	·	-6	-14	2556	·	·
C=C1CCN([C@@H](Cc2ccccc2)C(=O)NC2CCN(Cc3ccccc3)CC2)S(=O)(=O)c2ccccc21	·	·	3	-8	4618	·	·

Later entries.
SMILES	RN4220 kill	Sa ugtP lethal	BJeLR lethal	PrP 5UTR inh	Autofluor counter	Mtb hypoxia inh	Mtb hypoxia inh growth
Oc1ccc(C[C@@H]2CNCCN2CCc2cc(C(F)(F)F)cc(C(F)(F)F)c2)cc1	·	·	-2	4	3184	·	·
CCC(C)Oc1cccc(OCCCCN2C(=O)NC(C)(C)C2=O)c1 (configuration not stated)	9.7	10	2	-10	7471	5	-1
CC(=O)Nc1ccc(S(=O)(=O)NC(C)C(=O)OCCOc2ccc(F)cc2)cc1 (configuration not stated)	4.2	5	·	-19	·	0	-1
O=C(COc1coc(CN2CCN(c3ccccc3)CC2)cc1=O)Nc1ccccc1F	1.0	2	-5	-6	4468	-10	-7
Nc1ccc(C(=O)Nc2nccs2)cc1	-0.2	4	-10	-24	3324	9	14
CN1C(=O)/C(=C\C(=O)c2cccs2)c2ccccc21	·	·	3	-26	4969	·	·
Cc1ccc(C)c(N2CCN(C(=O)CCC(=O)N3CCOc4ccc(Cl)cc43)CC2)c1	-9.9	-12	5	-23	7335	12	9
O=C(c1ccc([N+](=O)[O-])o1)N1CCCCCC1	16	6	·	-20	·	13	6
Cc1onc(-c2ccccc2)c1C(=O)NCC(O)c1ccccc1 (configuration not stated)	3.4	1	-5	-16	4375	4	0
CC(=O)Nc1ccc(S(=O)(=O)N2CCC(N3CCCC3)CC2)cc1	4.1	5	9	1	5481	3	4
CCC(C)N(C(=O)COC(=O)CNC(=O)c1sc2ccccc2c1Cl)C1CCS(=O)(=O)C1 (configuration not stated)	2.8	5	4	4	5236	7	4
CC(C)CCN(C)c1ccc(/C=N/n2cnnc2)cc1	·	·	-7	-11	2837	·	·
CCC(CC)C(=O)c1c[nH]c(C(=O)NC2CCCCCC2)c1	-1.1	2	7	3	4342	2	-1
Cc1ccc(S(=O)(=O)c2c(C)c(C)c(C)[nH]c2=O)cc1	6.4	7	0	1	2974	3	6
COc1cc2c(cc1OC)C(c1cccc([N+](=O)[O-])c1)N(C(=O)c1ccc(F)cc1)CC2 (configuration not stated)	-0.1	2	5	-13	3374	1	5
